VACV Venus inh: inhibitors of vaccinia virus (Venus reporter); Vaccinia virus Venus reporter expression, fluorescence; Potency, µM (titrated, usually from 36.5 µM), for the others: at the top dose activity change, negative = inhibition, most hits filed as inhibitors; 0.46% of 330,000 active; active means well fitted inhibition curve with a large enough effect; inconclusive means small, poorly fitted or top-dose-only effect; inactive means no such curve, though single readings can be large or run the other way; tested in A549 cells; note: nearly all actives have a fitted effect of over 30% in size; inactives centre near -10
Vaccinia mCherry: inhibitors of vaccinia virus infection (mCherry reporter signal) | Potency, µM (top dose mostly 36.5 µM), without a hit: at the highest dose activity change, negative = inhibition, most hits filed as inhibitors | Vaccinia virus mCherry reporter infection, fluorescence; about a quarter of the inactives have no number | 0.63% of 310,000 active | AID 720579; active = well fitted inhibition curve with a large enough effect; inconclusive = small, poorly fitted or top-dose-only effect; inactive = no such curve, though single readings can be large or run the other way; tested in A549 cells; note: nearly all actives have a fitted effect of over 35% in size; inactives centre near -10
* = called active by the depositor; i = inactive; ? = inconclusive; . = no result given; & = joins results of further samples; [ ] = remark or other dose. % is set by controls: 0 for no effect and ±100 for the full control effect; potency is the fitted concentration of half-maximal effect.

SMILES	VACV Venus inh	Vaccinia mCherry
CC(=O)c1ccc(OCC(=O)Nc2cccc(S(=O)(=O)N3CCCC3)c2)cc1	-21%	-34%
Cc1ccc(N2CC(c3nnc(NC(=O)c4ccco4)s3)CC2=O)cc1C (stereo not given)	-16%	-15%
COCCCNC(=O)CN(Cc1ccc(Cl)cc1)S(C)(=O)=O	-4%	-15%
CC(=O)Oc1ccc(/C=C2/SC(=S)N(Cc3ccccc3)C2=O)cc1	70%[activator]	-17%
COC(=O)c1cccc(N(C(=O)CNC(=O)c2ccco2)C(C(=O)NC2CCCC2)c2ccco2)c1 (stereo not given)	1%	-13%
COc1ccc(OC)c(S(=O)(=O)Nc2cc(OC)c(Cl)cc2OC)c1	-19%	-3%
COc1ccccc1NC(=O)CC(NCc1ccccc1)C(=O)O (stereo not given)	-16%	-21%
O=C(C/C=N\OCc1ccc([N+](=O)[O-])cc1)Nc1ccccc1	-1%	i
N#CCNC(=O)c1nn2c(C(F)(F)F)cc(-c3ccccc3)nc2c1Br	-2%	-9%
Cc1nn(Cc2ccc(Cl)cc2)c(C)c1NC(=O)C(c1ccccc1)c1ccccc1	-12%	-14%
O=C1Cc2cc(S(=O)(=O)Nc3ccc(N4CCOCC4)cc3)ccc2N1	-8%	-9%
c1ccc(Nc2ccccc2)cc1	-8%	-13%
O=[N+]([O-])c1ccc(NN=Cc2cccc3ccccc23)nc1	6%	?
O=C(COC(=O)c1cc(=O)[nH]c2ccccc12)Nc1ccccc1F	5%	i
CCCc1nc(NCc2ccccc2)c(C#N)c2c1CCCC2	-16%	i
C#CCOCCOCCOCCNc1nc(N2CCN(C(=O)C([C@@H](C)O)n3cc([C@@H](N)CCCCN)nn3)CC2)nc(N2CCN(C(=O)[C@H](CCCCN)n3cc([C@@H](N)CC(N)=O)nn3)CC2)n1 (stereo not given in full)	0%	-14%
O=C(O)CCCC(=O)N1CCC(C(O)(c2ccccc2)c2ccccc2)CC1	-5%	-10%
COc1ccc(/C=C2\SC(=O)N=C2N)cc1OC	-12%	-6%
Cc1ccccc1CSc1ncc(Cl)c(C(=O)Nc2nc3ccc(F)cc3s2)n1	-17%	-14%
COc1ccccc1OCC(=O)Nc1cccc(S(=O)(=O)NC2=NCCCCC2)c1	-12%	-18%
O=C(NC1(C(F)(F)F)NC(=O)N(CCc2ccccc2)C1=O)c1ccc(Cl)cc1 (stereo not given)	-12%	i
COc1ccccc1NC(=O)Cc1noc(CN(C)Cc2cccs2)n1	-4%	-11%
O=C(COC(=O)c1ccc[n+]([O-])c1)Nc1cc([N+](=O)[O-])ccc1Cl	-9%	i
COc1ccc(NC(=S)NCC(O)c2ccccc2)c(OC)c1 (stereo not given)	-7%	-9%
CCCOc1ccc(N2CC(C(=O)Nc3cccc(Cl)c3Cl)CC2=O)cc1 (stereo not given)	-23%	?
CC(=O)Nc1ccc(S(=O)(=O)n2nc(C)cc2C)cc1	-7%	-12%
COc1cccc(C(=O)N2CCc3cc(OC)c(OC)cc3C2COc2ccc3c(C)cc(=O)oc3c2)c1 (stereo not given)	-13%	-23%
COc1ccc(C(=O)NCCS(=O)(=O)NC2CCCC2)cc1	0%	i
CCOC(=O)c1c(C)[nH]c(C(=O)COC(=O)c2ccc(F)c(S(=O)(=O)N3CCOCC3)c2)c1C	-8%	-12%
COc1ccc(Nc2oc(-c3ccc(OC)cc3)nc2C#N)cc1	-12%	-17%

3 structures out of the list, sorted by number of heavy atoms, rising.
SMILES	VACV Venus inh	Vaccinia mCherry
COc1ccc(Nc2oc(-c3ccc(OC)cc3)nc2C#N)cc1	-12%	-17%
O=C(COC(=O)c1cc(=O)[nH]c2ccccc12)Nc1ccccc1F	5%	i
COc1ccccc1OCC(=O)Nc1cccc(S(=O)(=O)NC2=NCCCCC2)c1	-12%	-18%

More results:
SMILES	VACV Venus inh	Vaccinia mCherry
COc1ccc(CNC(=O)CN2C(=O)NC(c3ccccc3)(c3ccccc3)C2=O)cc1	-12%	-2%
Cn1c(=O)cc(OCCCC(=O)NCCN2CCN(c3ccccc3F)CC2)c2ccccc21	-3%	i
CCOC(=O)N1CCC(NC(=O)CCC(=O)N2CCOc3ccc(C)cc32)CC1	-4%	.
COc1ccc(C(=O)COC(=O)CNC(=O)c2ccc(OC)cc2)cc1	-1%	6%
CN(C)CC/C=C1/c2ccc(F)cc2Sc2ccc(Cl)cc21	3%[7.34 µM]	-1%[7.34 µM]
Cc1ccccc1NC(=O)COC(=O)COc1ccc2c(c1)CCC2	-6%	-5%
Cc1ccc(-c2nc(CSc3nc4ccccc4c(=O)n3CCO)cs2)cc1	-25%	-9%
O=C(N/N=C/c1ccc(Cl)c([N+](=O)[O-])c1)c1ccc2nc[nH]c2c1	-10%	-18%
O=C(NC1CCCC1)C(c1cccnc1)N(C(=O)c1ccco1)c1ccc(F)cc1 (stereo not given)	7%	i
CCOC(=O)c1ccc(Nc2cc(-c3ccccc3)nc(C)n2)cc1	-12%	-15%
CCCc1sc(N/N=C/c2ccccn2)nc1-c1ccc(F)cc1	?	11µM*
Cc1cc(C(=O)CN2C(=O)CN(C)C2=O)c(C)n1-c1cccc(S(=O)(=O)N2CCOCC2)c1	-29%	i
CCOC(=O)N1CCN(S(=O)(=O)c2ccc(OC)c3ccccc23)CC1	-17%	.
Cn1c(=O)[nH]c(=O)c2c1nc(CN1CCN(c3ccc(F)cc3)CC1)n2CCc1ccccc1	-14%	i
COC(=O)[C@]12CCCCC=C1N(Cc1ccccc1)C(=O)[C@H](CC(=O)NCCCN1CCCC1=O)C2	5%	10%
COc1ccc(/C=C2\SC(=O)N(CCNC(=O)Cc3coc4cc(OC)ccc34)C2=O)cc1	-23%	?
O=C(CNc1cccc(S(=O)(=O)N2CCCC2)c1)Nc1ccc(F)c(F)c1	?	?
COc1ccc(-n2nc(C(=O)Nc3cc(C)c(Cl)cc3OC)c3c4ccccc4n(C)c3c2=O)cc1	12%	8%
O=C(CN=C1NS(=O)(=O)c2ccccc21)OCC(=O)c1ccccc1	-5%	-20%
Cc1cc(=O)oc2cc(OCC(=O)N3CC[C@@]4(O)CCCC[C@H]4C3)ccc12	6%	-4%
Nc1cc(S(=O)(=O)O)cc([N+](=O)[O-])c1O	5%	12%
O=C(C[n+]1cccc(/C=N/O)c1)N1CCCc2ccccc21	6%	i
CC[C@]12c3[nH]c4ccc(Cl)cc4c3CCN1C(=O)[C@@H](CC(=O)NCc1cccc(C(F)(F)F)c1)C[C@@H]2C(=O)N1CCN(C(=O)c2ccco2)CC1	-17%	-16%
O=C(COc1cccnc1[N+](=O)[O-])Nc1ccc(Cl)c(S(=O)(=O)N2CCOCC2)c1	-1%	?
O=C(CCl)Nc1ccc(N2CCCCCC2)cc1	-16%	?
COc1ccc(NS(=O)(=O)c2cc(N/C(=N\S(=O)(=O)c3ccccc3)c3ccc(F)cc3)ccc2Cl)cc1	?	-21%
CC(=O)NN1C(=O)c2ccc(Oc3cccc([N+](=O)[O-])c3)cc2C1=O	6%	-6%
CC1(C)Cc2cccc(OCC(=O)Nc3ccc(OCC(N)=O)cc3)c2O1	2%	-27%
Cc1ccc(NC(=O)CCCn2nc(C)c3c(C)n(-c4ccccc4)nc3c2=O)c(Cl)c1	-10%&1%	-22%&-13%
Cc1cccc(NC(=O)C(Cc2ccccc2)n2cccc2)c1C (stereo not given)	1%	-4%

Rewritten with two lines to a compound: entries from further up.
The line under a structure holds: VACV Venus inh | Vaccinia mCherry
CCOC(=O)c1ccc(Nc2cc(-c3ccccc3)nc(C)n2)cc1
    -12% | -15%
Cc1ccc(-c2nc(CSc3nc4ccccc4c(=O)n3CCO)cs2)cc1
    -25% | -9%
COC(=O)[C@]12CCCCC=C1N(Cc1ccccc1)C(=O)[C@H](CC(=O)NCCCN1CCCC1=O)C2
    5% | 10%

Going on with the list.
SMILES	VACV Venus inh	Vaccinia mCherry
O=C(Cc1c[nH]c2ccccc12)OCC(=O)c1ccccc1	-13%	i[1.46 µM]
CCOC(=O)c1ccc(NC(=O)CSc2nc(C)nc3c2c(=O)n(C)c(=O)n3C)cc1	-7%	15%
CCOC(=O)COc1coc(CN2CCN(c3ccccc3)CC2)cc1=O	-6%	-8%
CC1CN=C(Nc2ccc(F)c(Cl)c2)S1 (stereo not given)	3%	?
CCc1ccc(NC(=O)Nc2cccs2)cc1	-10%	.
COc1ccc(CCNC(=O)COC(=O)c2ccc(C)s2)cc1	1%	-5%
Cc1ccc(NC(=O)C(=O)NCC(c2ccc3c(c2)OCO3)N2CCN(C)CC2)cc1C (stereo not given)	-6%	-15%
Cc1ccc(NNC(=O)CCc2ccccc2)c(C)c1	-4%	-10%
O=C(CCC1CCCN(C(=O)CC2=CCCCC2)C1)N1CCN(c2ccccn2)CC1 (stereo not given)	-9%	-17%
CC(C)(C)N(Cc1ccccc1)C(=O)COC(=O)c1ccccc1SCC(=O)N1CCCC1	-3%	i
COc1ccc(NC(=O)c2ccco2)cc1NC(=O)COc1ccccc1Cl	-9%[7.34 µM]	-10%[7.34 µM]
O=C(CN(Cc1ccccc1Cl)C(=O)c1csnn1)NCc1ccc2c(c1)OCO2	3%	?
Cc1c(C(=O)N/N=C/c2ccc(N3CCOCC3)cc2)nc2ccccn12	-15%	i
Fc1ccc2[nH]c3c(NCc4ccco4)ncnc3c2c1	?	?
C#CC[N+]1(CC#Cc2ccc(C#CC[N+]3(CC#C)CCOCC3)cc2)CCOCC1	-5%	-6%
COc1ccc(Cl)cc1NC(=O)Cn1nc(C(F)(F)F)c2c1CCCC2	7%	-9%
O=C(CSCc1c(Cl)cccc1Cl)Nc1ccccc1-c1ccccc1	-18%	?
O=C(Cn1ccccc1=O)NCc1ccc(F)cc1	-9%	i
COc1ccc(-c2cnc3cccnn23)cn1	-8%	1%
CC(C)(C)OC(=O)N1CCC(CNC(=O)c2cccs2)CC1	-11%[7.34 µM]	i[7.34 µM]
CCOC(=O)N1CCN(C(=O)c2nc3ccccc3s2)CC1	-11%	-17%
CCn1c(C)cc(=O)cc1-c1ccc(Cl)cc1	-4%	0%
CC(=O)c1ccc(NC(=O)CSc2nnc(-c3ccncc3)o2)cc1	-4%	i
Cc1cc(C)c(O)c(CN(C)Cc2cc(Cl)cc(Cl)c2O)c1	?	2.8µM*
Cc1ccc(-c2nnc(N(C)C(=O)C3CCCO3)s2)cn1 (stereo not given)	-11%	-19%
CC(C)(C)[C@H]1C=C(C(=O)NCc2ccccc2)O[C@@H](OCc2ccc(CO)cc2)C1	-13%	-14%
O=C(CSc1ncc2c(n1)-c1cc(Cl)ccc1N(Cc1ccccc1)S2(=O)=O)NCCc1ccccc1	?	?
COc1cc(OC)cc(-c2noc([C@H]3C[C@H](O)[C@@H](CO)O3)n2)c1	-10%	24%
COC(=O)c1c(SCC(=O)Nc2cc(OC)cc(OC)c2)[nH]c2ccc(C)cc2c1=O	-22%	?
COc1ccc(/C=C(\C#N)C(=O)NCc2cccs2)cc1OC	-5%	-13%
Cc1ccc(S(=O)(=O)CCC(=O)OCC(=O)N(C)c2ccccc2)cc1	-17%	i
O=C(NCCCN1CCOCC1)c1ccc(Sc2ccccc2Cl)c([N+](=O)[O-])c1	-28%	?
CCN(CC(=O)Nc1c(F)cccc1F)C(=O)CCCOc1ccc(OC)cc1	-6%	-11%
COc1ccc(NC(=O)N(C)C[C@@H]2OCc3cnnn3CCCC(=O)N([C@@H](C)CO)C[C@H]2C)c(OC)c1	-8%	-20%
Cc1ccc(NS(=O)(=O)c2ccc(CCC(=O)NCc3ccccn3)cc2)cc1	4%	-3%
COc1ccc(-c2csc3nc(-c4ccccc4)oc(=O)c23)cc1OC	6%&-7%	-10%
Cn1nc(-c2ccc(Cl)cc2)c2cc(C(=O)N3CCN(c4ccccc4)CC3)sc21	-12%	i
COc1ccccc1C(c1nnnn1CC1CCCO1)N1CCC(C(N)=O)CC1 (stereo not given)	-11%	-15%
CC(=O)Nc1ccc(S(=O)(=O)NCC(=O)OCC(=O)c2ccc[nH]2)cc1	1%	-11%
Cc1cc(C)cc(Nc2nc3c(S(=O)(=O)c4ccccc4)nnn3c3ccccc23)c1	-9%	i
Cc1cccc(/C=N\NC(=O)c2csnn2)c1	-9%	.
CCCC1NC(=O)c2cccnc2-n2c1nc1cc(C)cc(C)c1c2=O (stereo not given)	?	?
Cc1cccc(C)c1N1CCN(S(=O)(=O)N(C)C)CC1	-7%	-23%
COC(=O)[C@]12CCCCC=C1N(Cc1cccc3ccccc13)C(=O)[C@H](CC(=O)NCCCCc1ccccc1)C2	-13%	-24%
COc1ccc(/C=N/N2C(=O)CSC2=S)cc1Br	38%[activator]	i

Single records, from the list above. Screens in order: VACV Venus inh | Vaccinia mCherry
`COC(=O)[C@]12CCCCC=C1N(Cc1cccc3ccccc13)C(=O)[C@H](CC(=O)NCCCCc1ccccc1)C2` is entered as -13% | -24%
`Cc1cccc(C)c1N1CCN(S(=O)(=O)N(C)C)CC1` is entered as -7% | -23%
`COc1ccc(/C=N/N2C(=O)CSC2=S)cc1Br` is entered as 38%[activator] | i
`Cc1cccc(/C=N\NC(=O)c2csnn2)c1` is entered as -9% | .
`COc1ccccc1C(c1nnnn1CC1CCCO1)N1CCC(C(N)=O)CC1` (stereo not given) is entered as -11% | -15%
